# TsaE inh = inhibitors of E. coli YjeE (TsaE) | actives 0.05% (n = 71,000) | P0AF67 | Potency, µM | purified YjeE, fluorescence polarisation of a bound ADP probe; active = well fitted falling curve; inconclusive = weaker or top-dose-only fall, or a rising curve; inactive = flat or poorly fitted curve;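 also: top concentration of the series not given in the record; excess ADP was the control for the full effect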
#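 Fluorescence polarization of a BODIPY Texas Red–ADP probe (2 uM) bound to purified YjeE (10 uM) was read after 15 min room-temperature incubation with compounds. Loss of polarization marks inhibitors; ADP serves as titrated control.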
# PK Bst = modulators of Bacillus stearothermophilus pyruvate kinase; actives 1.2% (n = 51,000); partly purified Bacillus stearothermophilus pyruvate kinase, luminescence ATP production; ribose 5-phosphate activator present at AC10; Potency, µM; in the data active means potency below about 11 µM; inconclusive means mostly about 12 µM to 25 µM; inactive means weaker than that;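 the screen sought inhibitors and activators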;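 also: potency is read from the fitted curve at half-maximal effect; scaled between full activation by ribose 5 phosphate and full inhibition by luteolin; about four in five hits inhibit and the cells do not say which; series up to 57 µM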
# * marks the source's active call; other numbers are inactive results; i = inactive; · = not tested or not shown. These rows are one share of the data; the hit share may differ from the screen's.
SMILES,TsaE inh,PK Bst
O=c1cc2c(n[nH]1)CCCC2,i,>57
C=C(C)c1cccc(C(C)(C)NC(=O)N2CCN(c3ccccn3)CC2)c1,i,·
CCNC(=O)CSc1nc2ccccc2c(=O)n1CCCOC(C)C,i,>57
COc1ccc(C2=C(N)c3ccccc3C2=O)cc1,i,·
CCN(CC)C(=O)c1cc(-c2ccc(Br)cc2)on1,i,·
COc1ccc2occ(C(=O)c3ccc(N=C(C)N(C)C)cc3)c2c1,i,·
CCOC(=O)N1CCC(N2Cc3cccc(C(=O)N4CC(C)CC(C)C4)c3C2=O)CC1 (stereo not given),i,>57
CC(=O)Nc1cc(C(F)(F)F)ccc1OCC1CCCO1 (stereo not given),i,>57
O=C(Nc1ccccc1C(=O)N1CCCC1)C1CCN(c2ncccn2)CC1,i,>57
COC(=O)c1ccc(CNC(=O)COc2ccccc2Br)o1,i,·
Clc1ccc(Cl)c(OCCN2CCOCC2)c1,i,>57
CCCCNC(=O)Nc1ccon1,i,>57
COc1ccc(S(=O)(=O)N(C(C)=O)c2ccc3oc(=O)sc3c2)cc1,i,>57
CCOC(=O)N1CCC(NC(=O)c2cc3c(=O)n(C)c4ccccc4c3n2C)CC1,i,·
Cn1cccc1C(=O)N1CCC[C@@]2(CCN(c3ccccc3)C2)C1,i,·
CN(Cc1nc(-c2ccccn2)no1)S(=O)(=O)c1ccccc1,i,>57
Cc1ccnc(N2CCCC(C(=O)Nc3cc(F)ccc3C)C2)n1 (stereo not given),i,>57
O=C(CCC(=O)N1CCCC1)Nc1nnc(C2CCCCC2)s1,i,>57
CCN(CC(=O)NC(C)C)C(=O)c1ccc(S(=O)(=O)N(C)c2ccccc2OC)cc1,i,>57
O=C(CSc1nnc(Cn2c(=O)sc3ccccc32)n1CCc1ccccc1)N1CCCC1,i,·
Cc1cnc(SCCc2ccncc2)nc1C,i,>57
CCOc1cccc(C(=O)Nc2cccc(-c3nnc(-c4ccc(C)cc4)o3)c2)c1,i,>57
Cc1cc(C)n(CCc2nc(-c3cc4ccccc4o3)cs2)n1,i,>57
CCn1c(SCC(=O)c2cc(OC)ccc2OC)nnc1C1CC1,i,>57
O=C(CN1C(=O)NC2(CCCCCC2)C1=O)c1ccc2c(c1)OCCO2,i,>57
O=C(Nc1c(F)c(F)c(F)c(F)c1F)C1CCCCC1,i,·
Cc1csc(NC(=O)c2c(O)c3cccc4c3n(c2=O)CCC4)n1,i,>57
NS(=O)(=O)c1ccc(CNC(=O)c2ccc(Br)o2)cc1,i,>57
Cc1cnc(Nc2nc3ccccc3o2)nc1C(=O)Nc1cccc(C(F)(F)F)c1,i,>57
COc1ccc(OC)c(C2C(C(=O)c3ccc(C)o3)=C(O)C(=O)N2CCCN2CCOCC2)c1 (stereo not given),i,>57
COc1cccc(N2CCN(C3CC(=O)N(c4ccc(Cl)cc4)C3=O)CC2)c1 (stereo not given),i,·
C=CCSc1nc(O)c(CC)c(=O)n1C(C)CC (stereo not given),i,·
NS(=O)(=O)c1cc(Cl)c(Cl)c(S(N)(=O)=O)c1,i,·
O=C(CS(=O)(=O)Cc1ccccc1)N1CCN(Cc2ccc3c(c2)OCO3)CC1,i,>57
CSc1oc(-c2ccccc2)nc1S(=O)(=O)c1ccc(F)cc1,i,>57
NC(N)=S,i,·
COc1ccc(-n2c(=O)c(-c3cccs3)nc3cnc(Nc4ccccc4)nc32)cc1,i,·
Cc1cc(C)n(-c2nc(NCCCO)c3c4c(sc3n2)CCCC4)n1,i,·
O=c1[nH]c(SCc2ccccc2Cl)nc2c1CCC2,i,·
Cc1cc(Nc2ccc(F)cc2F)n2ncnc2n1,i,·
Cc1oc(-c2ccccc2Cl)nc1CSCC(=O)NC1CC1,i,>57
c1cc(NC2CC2)nc(-c2ccoc2)n1,i,·
O=C(CSc1nc2scc(-c3ccco3)c2c(=O)n1-c1ccccc1)NCC1CCCO1 (stereo not given),i,>57
CC1(C)Cc2c(C#N)c(SCCC#N)nc(N3CCOCC3)c2CS1,·,>26
CCCn1c(NC(=O)C2COc3ccccc3O2)nc2ccccc21 (stereo not given),i,>57
O=C(NCc1ccc2c(c1)OCO2)C1CCN(S(=O)(=O)c2cccs2)CC1,i,>57
CCn1c(=O)n(CC(=O)N(C)Cc2ccccc2)c(=O)c2ccccc21,i,>57
CN(C)C(=O)Oc1ccc[n+](C)c1,i,>26
N#CC1=C(N)OC2=C(C(=O)CCC2)C1Cc1ccccc1 (stereo not given),i,>57
Cc1oc(-c2ccccc2)nc1C(=O)Nc1nccs1,i,>57
COC(=O)CN(c1ccc(OC)cc1)S(=O)(=O)c1ccc(OC)c(OC)c1,i,·
COc1cc(OC)c(NC(=O)CCc2nc(-c3ccc(C)cc3)no2)cc1Cl,i,>57
CN(c1ccc(C(=O)N2CCN(c3ccc(F)cc3)CC2)cc1)S(C)(=O)=O,i,>57
COc1cccc(-c2csc3nc[nH]c(=O)c23)c1,i,·
C=C(Br)Cn1c(CCC)nc2ccccc21,i,·
Cc1cc(NC(=O)CCC(=O)N(CC(=O)NC2CCCC2)Cc2ccc(F)cc2)no1,i,>57
C=CCn1c(-c2ccccc2)nc2nc3ccccc3nc21,i,>57
O=C(CSc1nc(-c2ccc(F)cc2)cs1)NC(=O)NCc1ccco1,i,>57
Cc1ccccc1S(=O)(=O)NC1OC(=O)C(Cl)=C1Cl (stereo not given),i,>57
COc1ccccc1NC(=O)C1=C(C)Nc2nnnn2C1c1cc(Br)ccc1OC (stereo not given),i,>57

# Whole records from above.
# Entry for `C=CCn1c(-c2ccccc2)nc2nc3ccccc3nc21` → TsaE inh = i; PK Bst = >57
# Entry for `COC(=O)CN(c1ccc(OC)cc1)S(=O)(=O)c1ccc(OC)c(OC)c1` → TsaE inh = i; PK Bst = ·
# Entry for `COc1cccc(-c2csc3nc[nH]c(=O)c23)c1` → TsaE inh = i; PK Bst = ·

# Later entries.
SMILES,TsaE inh,PK Bst
CCC(NC(=O)Nn1cnnc1)(C(F)(F)F)C(F)(F)F,·,>26
COC(=O)c1cc(COC(=O)c2cccnc2SC)oc1C,i,>57
Cc1csc(NC(=O)CCn2c(=O)oc3ccccc32)n1,i,>57
COc1ccc(CCNC(=O)C2CCN(S(=O)(=O)c3c(C)noc3C)CC2)cc1OC,i,>57
Nc1ncnc2nc(SCCc3ccccc3)[nH]c12,i,·
COc1cccc(NC(=O)c2oc3ccccc3c2NC(C)=O)c1,i,>57
COC(=O)CSc1ccc2nnc(-c3ccc(OC)c(OC)c3)n2n1,i,·
Cc1cccc(N2CCN(C(=O)C3CCCCC3)CC2)c1C,i,·
O=C1C(=O)N(CCCN2CCOCC2)C(c2ccccn2)/C1=C(\O)c1ccc2c(c1)OCCO2 (stereo not given),i,>57
Cc1occc1C(=O)N1CCN(Cc2ccccc2)CC1,i,·
CCOC(=O)N1CCC(N2C(=O)c3ccccc3C2Nc2cc(C(=O)OC)cc(C(=O)OC)c2)CC1 (stereo not given),i,·
O=S(=O)(c1ccc2c(c1)OCO2)N1CCN(c2nnnn2-c2ccccc2)CC1,i,>57
O=C(c1ccco1)c1n[nH]nc1-c1ccccc1,i,·
COc1ccc2[nH]cc(CCNc3ncnc4ccc(-c5cccnc5)cc34)c2c1,i,·
CC(C)=CCSc1nnc([C@@H](NC(=O)OC(C)(C)C)C(C)C)o1,i,>57
C=CCNS(=O)(=O)c1cccc2cc(C(=O)O)c(O)cc12,i,>57
Cc1ccc(C)c(NC(=O)C2CC=CCC2C(=O)O)c1 (stereo not given),i,·
C=CCN(C1CCCCC1)S(=O)(=O)c1ccc2c(c1)oc(=O)n2C,i,·
CCN(CC)c1c(-c2ccccc2)c2cc(C)ccc2[nH]c1=O,i,·
O=C(Nc1ccccc1)c1ccc(S(=O)(=O)N2CCCC2)cc1,i,>57

# Part of the list above in order of number of heavy atoms, highest first.
SMILES,TsaE inh,PK Bst
O=S(=O)(c1ccc2c(c1)OCO2)N1CCN(c2nnnn2-c2ccccc2)CC1,i,>57
CCN(CC)c1c(-c2ccccc2)c2cc(C)ccc2[nH]c1=O,i,·
COC(=O)c1cc(COC(=O)c2cccnc2SC)oc1C,i,>57
Cc1csc(NC(=O)CCn2c(=O)oc3ccccc32)n1,i,>57
Cc1ccc(C)c(NC(=O)C2CC=CCC2C(=O)O)c1 (stereo not given),i,·

# The results go on:
SMILES,TsaE inh,PK Bst
O=C(c1ccccc1-c1nc(-c2ccccc2)no1)N1CCCC1,i,>57
O=C(COc1ccc(Cl)cc1Br)N1CCN(c2ccccc2)CC1,i,·
Cc1cccc(N(C)c2cc(C)nc3ncnn23)c1,i,·
N#Cc1c(N)oc(-c2ccco2)c1-c1ccco1,i,>57
O=C(CCC(=O)N1CCN(c2ccccn2)CC1)Nc1nnc(C2CCCCC2)s1,i,>57
COc1ccc(Nc2nnc(C)c3ccccc23)cc1C(N)=O,·,i
NC(=O)C1(S(=O)(=O)c2ccccc2)CCCCC1,i,·
CC(C)CSc1nc(N2CCOCC2)c2c(c1C#N)CC(C)(C)SC2,·,>26
CC1CCC(NC(=O)c2cc3c(=O)n(C)c4ccccc4c3n2C)CC1 (stereo not given),i,·
COCCCNC(=O)CC(NS(=O)(=O)c1ccc(C)cc1)c1ccco1 (stereo not given),i,>57
COc1ccccc1NC(=O)NCc1ccc2c(c1)OCO2,i,>57
N#Cc1c(C#N)c(-c2ccccc2)n(-c2ccc(C(=O)O)cc2)c1N,i,>57
COC(=O)c1c(NC(=O)c2ccc(C)o2)sc2c1CCCCC2,i,·
COC(=O)[C@@]1(Cc2ccc(F)cc2)[C@H]2c3cc(C(=O)N4CCCC4)n(CCN4CNCC4=O)c3C[C@H]2CN1C(=O)c1ccccc1,i,·
COc1cccc(CNc2ccc(S(N)(=O)=O)cc2)c1OC,i,>57
O=C(c1ccccc1)c1ccc(N2CCOCC2)c(NC(=O)c2ccco2)c1,i,>57
CCNc1nc(SC(C)C(=O)Nc2ccccc2)nc(N2CCOCC2)n1 (stereo not given),i,>57
CC(C)NCC(O)c1ccc(O)c(O)c1 (stereo not given),i,·
COc1ccc(Nc2ncnc3nc[nH]c23)cc1OC,i,·
Fc1ccc(Nc2ncncc2-c2ccccc2C(F)(F)F)cc1,i,·
COc1ccc(NC(=O)c2cc(-c3ccc(C)o3)nc3ccccc23)cc1OC,i,3.7*
CCCNC(=O)NC(=O)CSc1nnc(-c2ccncc2)n1CC,i,>57
O=C(Nc1ccc(S(=O)(=O)N2CCOCC2)cc1)C1COc2ccccc2O1 (stereo not given),i,·
C[C@H](CCC(=O)O)[C@H]1CC[C@@H]2[C@H]3CC[C@H]4C[C@H](O)CC[C@@]4(C)[C@@H]3CC[C@@]21C,i,·
O=C(NC(NCCCN1CCOCC1)(C(F)(F)F)C(F)(F)F)C1CCCCC1,i,>57
CCCCOC(=O)C1[C@H]2C(=O)N(c3ccccc3CC)C[C@]23C=C[C@H]1O3 (stereo not given in full),i,>57
CC(C)[C@@H]1O[C@H](/C=C\c2ccccc2)OCC1(C)C,i,·
Cc1ccccc1NC(=O)Cn1cccc1,i,>57
COC(=O)c1ccc(N2C(=O)CC(N3CCOCC3)C2=O)cc1 (stereo not given),i,·
Cc1cc(C)n2ncc(C(=O)NCc3cccnc3)c2n1,i,i
COc1cc(C(=O)Nc2ccc3c(c2)C(=O)N(CCC(=O)O)C3=O)cc(OC)c1OC,i,>57
COc1cccc2[nH]c3c(N4CCC(C)CC4)ncnc3c12,i,>57
COc1cccc(C2=NOC(C(=O)Nc3cc(OC)c(OC)c(OC)c3)C2)c1 (stereo not given),i,>57
CCN(C(=O)COc1cc(=O)n(C)c2ccccc12)c1cccc(Cl)c1,i,i
COc1cc(OC)c2c(c1Cl)O[C@@]1(C2=O)[C@H](C)CC(=O)C[C@@H]1OC,i,·
Cc1cc(NC(=O)CSc2nc3ccsc3c(=O)n2CCCCC(=O)O)no1,i,>57
COc1ccccc1-c1noc(CCC(=O)Nc2cc(C(F)(F)F)ccc2Cl)n1,i,>57
O=C(NC1CCCCC1)C1CCN(S(=O)(=O)c2cccs2)CC1,i,>57
Cn1c(C(=O)NCCN2CCOCC2)cc2c(=O)n(C)c3ccccc3c21,i,·
CCc1nc(N)c(C#N)c(-c2ccco2)c1C,i,·

# Looked up by compound from the list above:
SMILES,TsaE inh,PK Bst
CC(C)[C@@H]1O[C@H](/C=C\c2ccccc2)OCC1(C)C,i,·
COc1cccc(C2=NOC(C(=O)Nc3cc(OC)c(OC)c(OC)c3)C2)c1 (stereo not given),i,>57
O=C(NC1CCCCC1)C1CCN(S(=O)(=O)c2cccs2)CC1,i,>57

# More records
SMILES,TsaE inh,PK Bst
Cc1cccc(N2CCN(S(=O)(=O)c3ccc4c(c3)CCC(=O)N4)CC2C)c1 (stereo not given),i,>57
Cn1c(C(=O)NCCN2CCc3ccccc3C2)cc2c(=O)[nH]c3ccccc3c21,i,9.2*
CCn1c(=O)cc(C(=O)OC)sc1=Nc1ccc(F)c(F)c1,i,·
CN(Cc1c(F)cccc1Cl)c1nnnn1-c1ccccc1,i,i
CC(=O)c1ccc(OCC(=O)NC2CCS(=O)(=O)C2)cc1 (stereo not given),i,>57
CC1CCCN(C(=O)C2c3ccccc3C(=O)N3CCc4ccccc4C23)C1 (stereo not given),i,>57
C=CCn1c(SCC(=O)NC(=O)NCc2ccco2)nc2sc(C)c(C)c2c1=O,i,>57
Cc1ccc(-c2noc(CCC(=O)N3CCCC3)n2)cc1,i,>57
CCN1CCN(c2cc(C)c3cc(NC(=O)c4ccc5c(c4)OCO5)ccc3n2)CC1,i,·
CC1=C(C(=O)OC(C)C)C(C)NC(=O)N1 (stereo not given),i,>57
CCOCc1nnc(NC(=O)c2ccco2)s1,i,>57

# Bioassay records from PubChem BioAssay.
